Source: PubChem BioAssay
HNF4A DNA FP: change in binding of human HNF4 alpha to DNA; P41235; HNF4a-FITC DNA binding, fluorescence polarization, 1 h; activity change, % at 10 µM; 0.3% of 360,000 active; AID 1224865; in the data active = activity change above about 30%, passing the limit was not always enough;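 note: controls were the assay level and a saturating level of protein; the project sought stronger binding though the title names inhibitors; some compounds called inactive have numbers as strong as hits; positive values seem to mean higher polarization but the record does not say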
B2AR ag: agonists of human beta-2 adrenergic receptor inducing internalization; P07550; Am2.2-beta2AR cells, FAP receptor internalization, flow cytometry; reference of the scale not given here; response, % (concentration not given with the values); 0.43% of 340,000 active;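 active = response above a set limit, near 3 SD of response in nonfluorescent compounds, cut at about 42% in these data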;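 note: stock transfer was 100 nL into about 11 µL; a reference agonist was the positive control; negative values mostly stem from fluorescent compounds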
Target sequence (P07550 whole entry, looked up): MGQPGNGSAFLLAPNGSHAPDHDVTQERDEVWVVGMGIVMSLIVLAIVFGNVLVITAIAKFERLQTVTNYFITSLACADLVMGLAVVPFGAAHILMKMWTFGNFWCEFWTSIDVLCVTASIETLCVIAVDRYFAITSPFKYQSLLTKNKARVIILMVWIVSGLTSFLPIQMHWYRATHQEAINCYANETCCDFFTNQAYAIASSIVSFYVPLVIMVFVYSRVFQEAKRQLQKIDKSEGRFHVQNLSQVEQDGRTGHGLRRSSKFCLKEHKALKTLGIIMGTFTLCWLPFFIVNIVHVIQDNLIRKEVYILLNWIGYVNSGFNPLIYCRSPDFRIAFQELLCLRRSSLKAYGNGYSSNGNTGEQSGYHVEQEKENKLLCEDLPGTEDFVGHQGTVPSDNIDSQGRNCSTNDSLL
Vif TR-FRET: inhibitors of Vif binding to APOBEC3G peptide, primary screen, biochemical, TR-FRET, GST-Vif 1-94, biotin-A3G peptide, dose response retest (AID 1117319). TR-FRET GST-Vif / biotin-A3G peptide binding; higher % means a stronger effect; test concentration not given here; strong numbers were not always called active. one-dose inhibition, %; IC50 in µM for titrated hits. 0.57% of 260,000 active;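 active = above the screen mean plus three standard deviations and confirmed in dose response; inconclusive = results disagree or hit not tested in dose response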;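 note: Vif residues 1-94 fused to GST binding biotinylated APOBEC3G peptide 110-148; 0% = full assay without inhibitor and 100% = GST in place of GST-Vif; retest series ran down from 100 µM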
ALR inh: inhibitors of human sulfhydryl oxidase ALR; 3.8% of 290,000 active; P55789; purified ALR, DTT oxidation, H2O2 HRP-luminol luminescence; inhibition, % (test concentration not listed);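 active = mean and each replicate at 75% or more; inconclusive = only one of the two met; inactive = neither met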;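 note: stock transfer was 7.5 nL into about 7.5 µL; 0% = neutral wells and 100% = wells with inactivated enzyme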
Target sequence (P55789 whole entry, looked up): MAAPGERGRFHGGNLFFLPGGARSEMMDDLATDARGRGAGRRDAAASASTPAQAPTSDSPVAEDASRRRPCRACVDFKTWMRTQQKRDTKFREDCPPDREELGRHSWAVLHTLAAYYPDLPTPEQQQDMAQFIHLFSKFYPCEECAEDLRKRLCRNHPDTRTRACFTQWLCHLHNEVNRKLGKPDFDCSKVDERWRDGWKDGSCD
Calb FLC: affects C. albicans growth with fluconazole. C. albicans CaCi-2 (fluconazole-resistant clinical isolate) + fluconazole, Alamar Blue growth, 48 h. growth inhibition, % (test concentration not listed). 0.57% of 300,000 active;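 active = most replicates above 75%; inconclusive = exactly half above 75%; inactive = most below 75%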;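 note: all wells also contain fluconazole at 8 µg/ml as a sub-toxic cotreatment; 0% = median of DMSO wells and 100% = median of geldanamycin control wells; wells of about 8 µL received 7.5 nL stock; the first replicate is given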
RanGTP-Impb inh: inhibitors of RanGTP-importin-beta interaction, primary screen, biochemical, FRET, CFP-Ran, YFP-importin-beta, homogeneous; 1.1% of 300,000 active; cell-free CFP-Ran/YFP-importin-beta FRET ratio; inhibition, % (test concentration not listed);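 active = most replicates above 15%; inconclusive = exactly half above 15%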;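 note: 0% = DMSO wells and 100% = Ran loaded with GDP instead of GTP; wells of about 40 µL received 100 nL stock; the first replicate is given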
LANA-H2B inh: blocks KSHV LANA binding to histone H2A/H2B; cell-free LANA-H2A/H2B peptide, fluorescence polarization; 0.6% of 320,000 active; Q9QR71; inhibition, % (no concentration beside the values); in the data active = inhibition mostly above about 10%, no sharp cut-off; inactive = mostly below about 6.7%;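 note: stock transfer was 7.5 nL into about 10 µL; 0% = median of vehicle wells and 100% = median of positive control wells; one replicate is shown; the record names a cut of 25% in any replicate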
Numbers without * were called inactive; ? = inconclusive; · = not tested or not shown.

SMILES	HNF4A DNA FP	B2AR ag	Vif TR-FRET	ALR inh	Calb FLC	RanGTP-Impb inh	LANA-H2B inh
O=C(Nc1ccc(Cl)cc1)c1ccc(-n2cncn2)c([N+](=O)[O-])c1	-1.5	2	1%	-40	-5	-1.4	0.4
CC(=O)OCc1c(C(F)(F)F)nn(C)c1Oc1ccccc1	-0.7	6	-3%	-8	-8	-2.2	-3.0
Cc1cc(NO)c(C(C)C)cc1N=O	1.9	5	·	1	11	4.7	0.3
CCCCn1c(N)c(N(CCOC)C(=O)c2ccc(C)o2)c(=O)[nH]c1=O	-1.5	-1	10%	-13	-2	0.4	2.7
Cc1c(/C=N/Nc2nc3ccccc3[nH]2)c2ccccc2n1C	2.1	12	8%	7	6	-5.8	7.0
CCC1(c2ccccc2)NC(=O)N(CC(=O)Nc2ccc3c(c2)OCO3)C1=O (centres undefined)	2.8	4	0%	4	-5	-1.5	-0.9
CCN(CC)C(=O)CSc1nnc(-c2cc(-c3ccc(Cl)cc3)nc3ccccc23)o1	0.5	-10	-8%	-4	-1	-5.1	5.2
CCNC(=O)C1CCCN1S(=O)(=O)c1ccc2ccccc2c1 (centres undefined)	5.6	4	10%	-4	7	-0.4	-0.3
O=C(Cn1cnc2c(nnn2-c2ccccc2)c1=O)N1CCC(Cc2ccccc2)CC1	4.0	4	-1%	-5	-5	?	5.1
Cn1c(=S)c2[nH]c(SCc3cccnc3)nc2n(C)c1=O	-4.0	3	-7%	·	·	·	·
CSCc1ccc(C(=O)OCc2nc3ccccc3s2)o1	3.9	11	-12%	-6	·	·	3.5
CCOc1cccc(Nc2cc3n(c(=O)n2)CCc2cc(OC)c(OC)cc2-3)c1	4.0	0	-9%	10	4	5.8	3.5
CC1=C(C(=O)Nc2ccccn2)C(c2cn(C)nc2C)C2=C(CCCC2=O)N1 (centres undefined)	0.1	-6	10%	-4	?	?	-0.8
CN(C)c1ncc(CN2CCC(CO)(CCCc3ccccc3)CC2)s1	8.1	-16	-2%	-4	-4	-0.9	-0.1
CN=C1SC(CC(=O)Nc2sc(C)c(C)c2C(=O)OC)C(=O)N1C (centres undefined)	-1.8	-5	?	-4	10	2.7	3.7
O=C(CSC1CCCCC1)Nc1nccs1	1.9	-8	5%	-28	-4	-1.5	-0.7
CC1(C)CC(NC(=O)C2CCCCC2C(=O)O)CC(C)(C)N1 (centres undefined)	0.8	-8	12%	-1	-5	4.9	2.1
O=C(COc1ccc(Cl)cc1Cl)NC(=O)N1CCCCC1	-2.0	-11	1%	-6	-15	-0.7	6.3
CCCCc1nnc(NC(=O)C23CC4CC(CC(NC(C)=O)(C4)C2)C3)s1	-2.9	-5	·	-2	-44	1.1	-3.6
CCOC(=O)c1c(C)c(C(=O)N2CCN(c3ccc(F)cc3)CC2)c(C)n1C	0.3	-2	·	28	-15	-1.1	1.5
CCOc1ccccc1C1C(C(=O)Nc2ccccc2OC)=C(C)Nc2nc(CCCO)nn21 (centres undefined)	2.7	-3	3%	1	1	1.1	-2.3
CCC(C)C(NC(=O)OC(C)(C)C)C(=O)NC(Cc1ccccc1)C(=O)OC (centres undefined)	-0.7	2	-6%	-14	-30	6.2	2.2
CCCCSc1nnc(-c2ccc(OC)cc2)n1C	-0.8	-6	-1%	-2	3	1.3	6.7
N=c1c(S(=O)(=O)c2ccc(Cl)cc2)cc2c(=O)n3ccccc3nc2n1C1CCCC1	9.1	-4	·	-15	-4	132*	7.1
CC(OC(=O)c1ccc(NS(=O)(=O)c2cccs2)cc1)C(=O)N(C)C1CCCCC1 (centres undefined)	1.6	0	·	0	-11	0.2	1.5

(more compounds)
SMILES	HNF4A DNA FP	B2AR ag	Vif TR-FRET	ALR inh	Calb FLC	RanGTP-Impb inh	LANA-H2B inh
COC(=O)c1cc(-c2ccc(Cl)cc2)n[nH]1	-4.6	2	·	6	-12	-1.8	6.4
CCN1C(=O)C(C(=O)Nc2ccc(OC)cc2)C2CC1(C)Oc1ccccc12 (centres undefined)	-3.0	6	-3%	0	-8	-6.1	-2.6
Cc1ccc(-n2c(N)c(S(=O)(=O)c3ccccc3)c3nc4ccccc4nc32)cc1	-1.1	8	·	-9	3	0.0	-1.3
C=CCNc1nc(NCCO)nc(N2CCCC2)n1	-0.8	-3	-3%	·	-6	3.3	2.1
O=C(COc1ccc2ccc(=O)oc2c1)N1CCN(c2ccc(F)cc2)CC1	0.4	0	·	6	0	2.2	-2.4
CCOc1ccc(NS(=O)(=O)c2cc(NC(=O)c3cccc(C)c3)ccc2Cl)cc1	0.2	7	29%	-4	16	0.0	2.1
CCN1CSC(=S)N(Cc2ccc(OC)cc2)C1	5.2	-4	-12%	12	1	1.3	-5.2
COCCNC(=O)C(c1ccc(O)cc1)N(Cc1cccs1)C(=O)CCC(=O)Nc1ccccn1 (centres undefined)	-6.1	-7	·	8	-4	4.4	1.9
COc1ccc(NS(=O)(=O)c2cccc(C(=O)NNC(=O)CNC(=O)c3ccccc3F)c2)cc1	3.6	-3	2%	-6	1	0.0	-1.2
Cc1cccc(N2CCN(C(=O)c3cccn4c(=O)c5c(C)c(C)sc5nc34)CC2)c1C	5.6	9	?	39	-11	9.4	-2.5
CCCN1CCN(C(=O)CCc2nnc3ccc(N4CCN(c5cccc(OC)c5)CC4)nn23)CC1	0.4	6	·	99*	6	4.4	0.2
COc1ccc(CNCCc2ccc(Cl)cc2)cc1OCc1ccccc1	1.3	4	-1%	-56	-32	-2.7	-1.2
NNC(=O)c1nc[nH]c1C(=O)Nc1ccccc1	0.5	5	·	1	4	2.2	1.3
O=C(C[N+]1(CC#Cc2ccccc2)CCOCC1)c1ccccc1	-4.7	3	4%	16	-4	2.1	4.7
CN(C)S(=O)(=O)c1cc(NC(=O)COC(=O)c2nc(Cl)ccc2Cl)ccc1Cl	5.4	-15	-12%	4	·	·	1.2
CS(=O)(=O)NN1C(=O)c2ccccc2NC12CCCC2	-2.4	-6	-1%	-2	-5	0.6	-1.2
O=C(COc1cccc2ccccc12)N1c2ccccc2CCc2ccccc21	0.1	11	-5%	·	-2	-0.4	1.8
Cc1cccn2c(=O)c3cc(C(=O)N4COCC4(C)C)sc3nc12	4.4	-12	?	·	48	0.2	0.1
Cc1[nH]n(-c2ccccc2)c(=O)c1C(c1ccc(O)c([N+](=O)[O-])c1)c1c(C)[nH]n(-c2ccccc2)c1=O	0.3	20	·	-3	2	-2.5	0.1
COc1ccc(N2C(=O)CSC2c2ccccc2)cc1 (centres undefined)	2.3	-5	-2%	97*	-3	-1.7	2.2
COc1ccccc1NC(=O)NC1CC(=O)N(c2ccc3c(c2)OCCO3)C1 (centres undefined)	1.6	-1	-4%	0	-3	6.7	-5.3
O=c1c2c3c(sc2nc2n1CCCC2)CCCC3	-1.1	-1	15%	39	6	1.1	-1.7
C=CCn1c(Cc2csc(N)n2)nnc1SCC(=O)OCC	0.4	-1	4%	-1	4	4.9	-0.7
COc1ccc(CN2CCn3ncc(C(=O)Nc4cc(C)cc(C)c4)c3C2=O)cc1	-0.7	3	-4%	-1	7	1.8	2.7
CN(C)Cc1c(O)ccc2occ(C(O)c3ccccc3)c12 (centres undefined)	1.5	-9	3%	·	-5	-1.2	-2.1

Going on with the list:
SMILES	HNF4A DNA FP	B2AR ag	Vif TR-FRET	ALR inh	Calb FLC	RanGTP-Impb inh	LANA-H2B inh
COc1ccc(S(=O)(=O)N(C)c2ccc(C(=O)NCc3ccccn3)cc2)cc1OC	-0.8	-2	·	4	-6	0.9	0.8
CC(C)(CNC(=O)Cc1ccc(Cl)cc1Cl)N1CCCCC1	-1.6	-1	-12%	2	2	0.9	1.4
Cc1nn(Cc2ccccc2)c(Cl)c1C(=O)NC(C)(C)C	-5.5	3	2%	14	-5	-1.6	0.1
CCOCCOC(=O)C1=C(C)N(C)C(=O)NC1c1cc(Cl)c(O)c(OC)c1 (centres undefined)	-0.3	2	4%	21	9	-4.6	0.1
CCC(C(=O)Nc1nc(C)cs1)c1ccccc1 (centres undefined)	3.0	6	-1%	·	27	1.3	-2.0
CN1CCN(S(=O)(=O)c2cccc(C(=O)N(C)Cc3cccs3)c2)CC1	0.4	-8	-5%	-3	·	·	2.4
Cc1sc(NC(=O)c2cccc([N+](=O)[O-])c2)c(C(N)=O)c1-c1ccc(C(C)(C)C)cc1	-1.2	-2	-2%	3	-5	?	-6.0
CC(C)(C)n1nc2c(c1NC(=O)CCCc1ccccc1)CS(=O)C2 (centres undefined)	-0.8	-5	-6%	-14	-5	1.8	-3.7
c1ccc2cc(Cn3ccnc3)ccc2c1	-2.8	-9	·	-9	19	5.0	0.7
O=C(NNC(=O)c1cccc2ccccc12)c1ccc(Br)cc1	-0.2	1	-1%	·	·	·	·
Cc1ccc(N(Cc2cc(=O)[nH]c3ccccc23)C(=O)C(C)C)cc1	-0.4	-16	22%	-3	2	-2.7	-3.2
Nc1nonc1C(=O)NC(c1ccccc1)c1ccccc1	-0.9	1	14%	-1	13	-1.7	4.9
O=C(C1=C[C@@H](C2CCCCC2)C[C@@H](OCCCCO)O1)N1CCN(Cc2ccc3c(c2)OCO3)CC1	3.6	-3	8%	-4	10	?	-1.5
CCCc1cc(=O)n2[nH]c(Cc3ccccc3)nc2n1	1.6	-7	-4%	-1	-7	0.6	-0.3
CC12CCC(C(=O)Nc3cc(F)ccc3F)(CC1=O)C2(C)C (centres undefined)	2.9	11	71%	-20	-10	-1.3	-1.7
O=c1cc(Cl)[nH]c(=O)n1Cc1ccc(F)cc1	3.9	-11	·	-6	-1	1.8	-6.0
CCOc1ccc(CC2NCCc3cc(OCC)c(OCC)cc32)cc1OCC (centres undefined)	3.3	8	1%	·	4	-5.4	0.0
CCn1c2ccccc2c2cc([N+](=O)[O-])ccc21	2.1	5	-4%	-17	16	-1.2	6.8
CCNC(=O)COC(=O)/C=C/c1c(C)nn(Cc2cccc(OC)c2)c1Cl	4.6	3	24%	0	-2	0.6	0.9
COC(=O)Cc1cc(=O)n(-c2nc3ccccc3s2)[nH]1	-1.3	3	18%	48	94*	19*	3.8
O=C1C=CC(=O)N1c1ccccc1N1C(=O)C=CC1=O	-4.5	9	27%	·	·	·	·
Cn1cnnc1Sc1ccc(/C=C(\CCC(=O)O)c2nc3ccccc3s2)cc1[N+](=O)[O-]	2.2	-4	-3%	-90	-1	-3.5	1.6
O=[N+]([O-])c1ccc(N=Nc2c(Cl)cc(O)cc2Cl)cc1	-1.8	55*	12%	57	?	-3.1	-0.2
COc1cccc(NC(=O)C(Sc2nnc3ccccn23)c2ccccc2)c1 (centres undefined)	-1.0	-12	2%	1	-16	-0.5	2.8
Cc1ccc(C(=O)O/N=C(/c2nonc2N)N(C)C)cc1	-0.5	-2	-3%	·	0	-0.4	1.9
O=S(=O)(c1ccc(F)cc1)N1CCN(Cc2ccccn2)CC1	-3.5	7	0%	-8	20	-0.9	2.2
FC(F)(F)c1cnc(Oc2ccccc2-c2nnc(-c3ccc(Cl)cc3)o2)c(Cl)c1	2.5	7	?	-12	-3	1.3	0.3
CC(C)NC(=O)C(=O)NC1CCCCCC1	-0.5	4	1%	1	11	5.7	-0.3
